Bioassay records: PubChem BioAssay, several laboratories
Arbovirus inh – arbovirus infection inhibition | inhibition, % at 10 µM | actives 0.37% (n = 200,000) | arbovirus infection cell-based antiviral screen | AID 1251;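 active = inhibition from about 30%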;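 also: bluetongue infection of BSR cells; cell survival read as ATP light after 72 h; 0% = infected wells without compound and 100% = uninfected wells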
YopH inh – blocks Yersinia enterocolitica YopH tyrosine phosphatase. fluorescence Ex485/Em525. inhibition, %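 (about 10 µM by stock and volumes)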. actives 0.16% (n = 140,000). AID 898;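 active = inhibition of 50% or more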;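 also: controls were vehicle for no effect and minimum signal wells for full effect; inactives centre near -20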
Mtb bLac sens – beta-lactam sensitization of Mtb H37Rv; M. tuberculosis H37Rv growth with meropenem, percent inhibition; hits of this screen are not shown here; inhibition, % at 25 µM; actives 0.27% (n = 330,000); AID 434955;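 active = about 74% or more and at least 40 points above the plate without the antibiotic, then above 30% in a dose series; inconclusive = first-round hits that could not be retested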;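 also: growth measured after seven days incubation then overnight dye step; 0% = bacteria only wells and 100% = bacteria with antibiotic; twin plates without the antibiotic show which effects depend on it; some results filed as inactive read as strong as hits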
Mtb growth – M. tuberculosis H37Rv growth inhibitors, H37Rv strain (AID 1626); actives 0.95% (n = 220,000); M. tuberculosis H37Rv growth inhibition; higher % means a stronger effect; inhibition, % at 10 µM, or IC50 in µM where a hit was titrated;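 active = confirmed in a dose series; inconclusive = inhibition above 80% but not taken into the dose series; inactive = below 80% or under 30% at every dose of the series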;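 also: bacteria incubated seven days before Alamar blue readout; 0% = bacteria only wells and 100% = bacteria with antibiotic wells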
RecA splice inh – blocks M. tuberculosis RecA intein splicing | P9WHJ3 | cell-free RecA intein splicing, fluorescence | inhibition, %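 (about 9 µM by stock and volumes)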 | actives 0.75% (n = 290,000); in the data active = inhibition above about 30%; inconclusive = no clear call, values can overlap the other calls;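 also: 0% = vehicle wells and 100% = reference inhibitor control wells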
Target sequence (P9WHJ3 whole entry, looked up, canonical isoform): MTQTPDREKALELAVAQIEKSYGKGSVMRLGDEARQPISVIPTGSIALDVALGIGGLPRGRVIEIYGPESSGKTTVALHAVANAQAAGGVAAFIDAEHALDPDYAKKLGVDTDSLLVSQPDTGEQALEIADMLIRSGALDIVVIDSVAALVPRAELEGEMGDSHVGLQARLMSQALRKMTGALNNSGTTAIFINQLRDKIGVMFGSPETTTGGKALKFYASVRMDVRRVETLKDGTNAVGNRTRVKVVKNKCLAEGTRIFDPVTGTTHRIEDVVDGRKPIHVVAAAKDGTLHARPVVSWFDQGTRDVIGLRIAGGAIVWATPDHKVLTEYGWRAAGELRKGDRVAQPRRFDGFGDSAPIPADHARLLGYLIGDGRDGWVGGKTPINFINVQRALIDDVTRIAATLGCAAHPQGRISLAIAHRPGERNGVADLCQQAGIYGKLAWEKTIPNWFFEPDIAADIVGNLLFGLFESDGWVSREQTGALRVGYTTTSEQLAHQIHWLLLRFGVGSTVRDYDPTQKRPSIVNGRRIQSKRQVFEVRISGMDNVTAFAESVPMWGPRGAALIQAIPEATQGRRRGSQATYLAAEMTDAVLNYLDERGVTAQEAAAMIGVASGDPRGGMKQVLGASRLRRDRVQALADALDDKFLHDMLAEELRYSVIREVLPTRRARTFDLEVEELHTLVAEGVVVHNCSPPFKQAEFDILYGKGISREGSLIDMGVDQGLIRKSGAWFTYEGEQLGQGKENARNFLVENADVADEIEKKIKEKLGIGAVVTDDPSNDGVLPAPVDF
Arbovirus inh repeat – also measured in Arbovirus inh; calls as there; inhibition, %; measured here: 10K subset replicate screen; many hits read low in the repeat;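 first of two repeat runs on a subset; 0% = infected and 100% = uninfected wells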
* hit, by the source's call; ? = inconclusive; · = not tested or not shown. This is a subset; rates above refer to the full screens.

SMILES | Arbovirus inh | YopH inh | Mtb bLac sens | Mtb growth | RecA splice inh | others
Cc1cc(-c2ccccc2)c2c(=O)[nH][nH]c2n1 | 5 | -31 | 9 | -7% | -9.2
COC(=O)c1ccccc1NC(=S)NC(=O)c1ccccc1F | -4 | -18 | 0 | 3% | 4.5
COc1ccc(S(=O)(=O)N2CCC(C(=O)NCCN3CCOCC3)CC2)cc1 | · | · | -16 | · | 1.4
COc1ccccc1CN(C)C(=O)C1COc2ccccc2O1 (centres undefined) | -3 | -49 | -1 | 0% | 2.9
Cn1nc(-c2ccc(C(=O)Nc3ccc(F)cc3)cc2)c2ccccc2c1=O | -8 | · | 7 | 9% | -2.4
Cc1cc(C)c(NC(=O)COc2ccccc2C(=O)Nc2ccc3c(c2)oc2ccccc23)c(C)c1 | 4 | -13 | 38 | 8% | 1.0
Cc1ccc(NC(=O)Nc2ccc(F)c(Cl)c2)cc1 | 7 | · | 6 | 3% | 0.2
Cc1c(N(C(=O)c2cc(=O)[nH]c3ccccc23)C(C)C)c(=O)n(-c2ccccc2)n1C | 13 | -11 | -6 | 9% | 1.1
c1ccc(-c2ccc(OCCCNC3CCCC3)cc2)cc1 | -33 | · | 21 | 11% | 4.4
CCc1nc2nc(C)c(NS(=O)(=O)c3ccc(Cl)cc3)c(=O)n2[nH]1 | · | · | -2 | · | 0.6
CC1CCCN(CC(=O)N2CCCc3ccccc32)C1 (centres undefined) | -6 | -8 | -2 | 1% | -2.1
COc1ccc(C(Nc2ccccn2)c2c(NC(=O)c3ccco3)sc(C)c2C)cc1OC (centres undefined) | -17 | -14 | -1 | 0% | 10
CC1(C)CC(NC(=O)c2ccc(Cl)cc2)CC(C)(C)N1 | · | · | 0 | · | 2.8
CC1Cc2ccccc2N1CC(=O)NC(=O)NCc1ccccc1 (centres undefined) | 2 | · | 3 | 2% | 0.8
CSc1ncccc1C(=O)N1CCCC(C(=O)c2cc(F)ccc2F)C1 (centres undefined) | 4 | · | 1 | 7% | -4.9
COC(=O)c1cc(Nc2cc(C)c3c(O)cccc3n2)cc(C(=O)OC)c1 | · | · | -8 | 9% | -4.4
Cc1cc(=O)[nH]c(SCC(=O)c2ccc(C(C)C)cc2)n1 | 1 | -25 | 4 | -4% | -1.7
CC(=O)N1CCc2cc(S(=O)(=O)CCC(=O)NCc3ccc4c(c3)OCO4)ccc21 | -1 | 8 | -2 | 2% | 4.8
COc1c2ccoc2c(OC(C)=O)c2oc(C)cc(=O)c12 | · | · | 2 | · | -7.6
CCc1nc(N[C@H](C(=O)O)C(C)C)c2oc3ccccc3c2n1 | · | · | -4 | -5% | 1.3
CC1=C(SCCC#N)S/C(=C2\SC(C)=C(SCCC#N)S2)S1 | -9 | -28 | 7 | -10% | -2.3
COCCNC(=O)c1ccc(N2CC3CC(C2)c2cccc(=O)n2C3)c(NC(=O)c2ccc(F)cc2)c1 (centres undefined) | · | · | -6 | · | 4.0
O=C(Nc1ccccc1)N(Cc1ccccc1)Cc1ccccc1 | -1 | -6 | 12 | 10% | 2.3
Oc1cccc(C(=S)N2CCN(Cc3ccccc3)CC2)c1 | 0 | -19 | 10 | -8% | 0.3
CCCCN(C(=O)CSc1nncn1-c1ccccc1OC)c1c(N)n(Cc2ccccc2)c(=O)[nH]c1=O | 0 | · | 5 | 1% | 3.9
c1ccc(Cn2nnnc2C(c2cccnc2)N2CCN(C3CCCCC3)CC2)cc1 (centres undefined) | -5 | -20 | 6 | -5% | -1.0
CSC1=NCCN1C(=O)c1ccc(S(=O)(=O)N2CCCC2)cc1 | -1 | -52 | -1 | -19% | 2.4
CCOc1ccc(NC(=O)CN(C)C(=O)c2c(-c3ccccc3Cl)noc2C)cc1OCC | · | · | -2 | · | -0.9
Cc1ccc(CN2C3CCCC2CC(NC(=S)NCc2ccccc2)C3)cc1 (centres undefined) | -24 | · | 30 | 5% | -0.5
O=c1cc(CNc2cc(C(F)(F)F)cc(C(F)(F)F)c2)nc2sccn12 | -32 | -18 | 4 | 13% | -0.2
C=CCN1CC[C@@]2(C)c3cc(O)ccc3CC1[C@@H]2C | · | · | 1 | -5% | -7.4
COCC1CCN(Cc2cn(C)nc2-c2cccc(Cl)c2)C1 (centres undefined) | 2 | · | -5 | -5% | 2.5
COc1ccc(OC)c(NC(=O)C2CCCCC2)c1 | -6 | -23 | 4 | 65% | 0.5
Cc1ccc(OCCNC(=O)c2ccc(NC(=O)CC3SC(N4CCCC4)=NC3=O)cc2)cc1 (centres undefined) | · | · | 0 | · | -1.0
CCN(CC)S(=O)(=O)c1ccc(N2CCOCC2)c(NC(=O)COc2ccccc2C#N)c1 | 4 | · | 0 | 10% | 11
CCOC(=O)c1cc(C(=O)NCc2ccc(Cl)cc2Cl)nn1C | 2 | -33 | 49 | ? | 4.8
Cc1cc(C(=O)Nc2cnc3ccccc3c2)ccc1[N+](=O)[O-] | 4 | · | -1 | 2% | 0.9
CC(c1ccccc1)n1c(S(=O)(=O)O)nc2ccccc21 (centres undefined) | 1 | · | -4 | 8% | -3.0
O=[N+]([O-])c1ccc(-c2ncc(-c3ccc(Br)cc3)o2)cc1 | · | · | -8 | -3% | -0.6
O=C(OCC(=O)N1CCCC1)c1ccc(NS(=O)(=O)c2cccs2)cc1O | 7 | · | -5 | -3% | -0.9
CCC(C)NC(=O)CCCc1ccccc1 (centres undefined) | 5 | -14 | -6 | -1% | -3.2
COC(=O)c1ccc(Cl)c(NC(=O)CN2CCN(C)CC2)c1 | 10 | -19 | 4 | -13% | 1.6
CC(NC(=O)N1CCOCC1)c1ccccc1 (centres undefined) | · | · | -2 | · | -0.3
O=C(Cc1ccccc1)Nc1ccc(Br)c(Cl)c1 | 6 | -27 | 4 | 3% | 1.1
COc1ccccc1N(CC(=O)N1CCC(C(N)=O)CC1)S(=O)(=O)c1ccccc1 | · | · | -3 | · | 1.7
Cc1nc(NC(=O)C2CC2)sc1C(=O)NC1CCCCC1 | -3 | · | -9 | -2% | -1.7
CCCc1[nH]nc2c1C(c1cn[nH]c1-c1ccc(F)cc1)C(C#N)=C(N)O2 (centres undefined) | 8 | 3 | 9 | 6% | 81*
CC(=O)NC(=S)Nc1ccc(NC(=S)NC(=O)c2cccs2)cc1 | · | · | -6 | · | -1.8
CC(C)C[C@H](CO)Nc1nc(Nc2cccc(Cl)c2)c2ncn(C(C)C)c2n1 | · | · | 98 | 29% | -0.7
OC1(c2ccccc2)CN(c2ccccc2)C2=[N+]1CCS2 (centres undefined) | -21 | -12 | 4 | 3% | 0.5
O=C(O)CCCC(=O)N1CCc2cc(S(=O)(=O)NCc3ccccc3)ccc21 | 9 | · | 0 | 5% | -3.2
O=C(CSc1nnc(-c2ccc(F)cc2)c2ccccc12)Nc1cccc(Cl)c1 | 10 | -50 | 0 | -4% | 3.5
Cn1c2ccccc2c2cc(/C=C(\NC(=O)c3ccccc3)C(=O)NCC(=O)O)ccc21 | · | · | 13 | -1% | 2.6
CCC(=O)N1N=C2C3CCN(CC3)C2C1c1ccccc1 (centres undefined) | 6 | 1 | 0 | -14% | 2.7
CC(C)CNC(=O)c1cccc(NC(=O)c2ccc3c(c2)C(=O)N(C)C3=O)c1 | · | · | -2 | · | 0.0
CCOC(=O)c1c(C)n(C)c2c(C)cc(O)c(OC(=O)CC)c12 | 0 | 9 | 4 | 13% | -2.1
CC1=C(C(=O)OCc2ccccc2)C(c2ccc([N+](=O)[O-])cc2)NC(=O)N1C (centres undefined) | · | · | 5 | · | 3.8
O=C(CSc1ccccc1)NC1CCCCCCC1 | · | · | -4 | · | 1.8
CC(=O)Nc1ccc2c(CN3C(=O)NC(C)(c4ccc(C)cc4)C3=O)cc(=O)oc2c1 (centres undefined) | -25 | · | 2 | -1% | -3.8
COc1ccccc1NC(=O)CCc1nc2sc3c(c2c(=O)[nH]1)CCCC3 | · | · | 0 | · | -0.1

Later entries:
SMILES | Arbovirus inh | YopH inh | Mtb bLac sens | Mtb growth | RecA splice inh | others
CN(C)N1C(N)=C(C#N)C(c2cccs2)C2=C1CC(C)(C)CC2=O (centres undefined) | 1 | · | -15 | -7% | -2.6
O=C(CSc1ncccn1)NC(=O)NCc1ccco1 | 2 | · | -10 | 0% | 0.5
O=C(NCc1cccs1)c1ccccc1[N+](=O)[O-] | -7 | -18 | 5 | 13% | -0.2
CN(C)C(=O)N1CCC(C(=O)NCc2ccccc2)CC1 | 6 | -13 | 5 | -3% | -0.1
CC(=O)c1ccc(NC(=O)CSc2nnc(NC(=O)CN3CCOCC3)s2)cc1 | 0 | -13 | -6 | 0% | 1.1 | Arbovirus inh repeat=2
Cc1ccc(-c2csc3ncn(CC(N)=O)c(=O)c23)cc1C | · | · | -6 | · | 1.1
COc1cc2cc(Oc3ccc4ccc(=O)oc4c3)c(=O)oc2cc1OC(=O)/C=C/c1ccccc1 | · | · | 3 | -9% | -3.9
CCc1ccc(N2C(=O)C(Cl)=C(N3CCCCCC3)C2=O)cc1 | · | · | 3 | · | -4.2
COc1ccc(CCNC(=O)c2ccc(S(=O)(=O)N(C)c3ccccc3)cc2)cc1OC | · | · | -1 | · | 2.5
COc1ccc(C(=O)NCCONC(=O)c2ccc(OC)cc2)cc1 | · | · | 4 | · | 2.1
O=[N+]([O-])c1cc(/C=N/Nc2nc(N3CCCCC3)nc(N3CCCCC3)n2)ccc1O | -10 | -28 | 83 | 10% | -15
CCCSc1nnc(CNC(=O)C23CC4CC(CC(C4)C2)C3)n1Cc1ccccc1 | -7 | -26 | 17 | · | 1.9
Cc1c(Cl)cccc1N(Cc1ccc(C(=O)O)cc1)S(=O)(=O)c1ccccc1 | -8 | · | -3 | -7% | 1.1
COc1cc(NC(=O)c2cc(-c3ccc4c(c3)OCO4)on2)cc(OC)c1OC | · | · | 1 | · | 1.0
COCCNC(=O)C(OC(=O)C1=Cc2ccccc2OC1)C(C)C (centres undefined) | -1 | · | 4 | -9% | -1.8

15 entries from above, arranged by heavy-atom count, rising:
SMILES | Arbovirus inh | YopH inh | Mtb bLac sens | Mtb growth | RecA splice inh | others
O=C(NCc1cccs1)c1ccccc1[N+](=O)[O-] | -7 | -18 | 5 | 13% | -0.2
O=C(CSc1ccccc1)NC1CCCCCCC1 | · | · | -4 | · | 1.8
O=C(CSc1ncccn1)NC(=O)NCc1ccco1 | 2 | · | -10 | 0% | 0.5
CN(C)C(=O)N1CCC(C(=O)NCc2ccccc2)CC1 | 6 | -13 | 5 | -3% | -0.1
Cc1ccc(-c2csc3ncn(CC(N)=O)c(=O)c23)cc1C | · | · | -6 | · | 1.1
CCc1ccc(N2C(=O)C(Cl)=C(N3CCCCCC3)C2=O)cc1 | · | · | 3 | · | -4.2
CN(C)N1C(N)=C(C#N)C(c2cccs2)C2=C1CC(C)(C)CC2=O (centres undefined) | 1 | · | -15 | -7% | -2.6
COc1ccc(C(=O)NCCONC(=O)c2ccc(OC)cc2)cc1 | · | · | 4 | · | 2.1
COc1ccccc1NC(=O)CCc1nc2sc3c(c2c(=O)[nH]1)CCCC3 | · | · | 0 | · | -0.1
Cc1c(Cl)cccc1N(Cc1ccc(C(=O)O)cc1)S(=O)(=O)c1ccccc1 | -8 | · | -3 | -7% | 1.1
CC(=O)c1ccc(NC(=O)CSc2nnc(NC(=O)CN3CCOCC3)s2)cc1 | 0 | -13 | -6 | 0% | 1.1 | Arbovirus inh repeat=2
CCCSc1nnc(CNC(=O)C23CC4CC(CC(C4)C2)C3)n1Cc1ccccc1 | -7 | -26 | 17 | · | 1.9
O=[N+]([O-])c1cc(/C=N/Nc2nc(N3CCCCC3)nc(N3CCCCC3)n2)ccc1O | -10 | -28 | 83 | 10% | -15
COc1ccc(CCNC(=O)c2ccc(S(=O)(=O)N(C)c3ccccc3)cc2)cc1OC | · | · | -1 | · | 2.5
COc1cc2cc(Oc3ccc4ccc(=O)oc4c3)c(=O)oc2cc1OC(=O)/C=C/c1ccccc1 | · | · | 3 | -9% | -3.9

Remaining list, next part:
SMILES | Arbovirus inh | YopH inh | Mtb bLac sens | Mtb growth | RecA splice inh | others
CCOc1cc(C(=O)Nc2ccc(N3CCN(C(C)=O)CC3)cc2)cc(OCC)c1OCC | · | · | 5 | · | -2.8
O=C(Nc1ccc2c(c1)OCCO2)c1ccncc1 | -1 | 5 | 3 | -2% | -0.8
COc1ccc(CCN2C(=O)CC(Sc3ncccc3C(=O)O)C2=O)cc1OC (centres undefined) | 4 | -15 | -1 | -8% | -5.2
O=C1c2ccccc2C(=O)N1CC1c2ccccc2CCN1S(=O)(=O)c1cnc[nH]1 (centres undefined) | 1 | -31 | 2 | 6% | 2.0
